TRPV1 PAM: HTS Assay for Compounds that Act as Potentiators of the Vanilloid Receptor 1. Transient receptor potential cation channel subfamily V member 1 (Homo sapiens), Q8NER1. TRPV1-expressing cells, Fluo-8 calcium influx, capsaicin EC20 potentiation; host cell line not named in the record; control for the full effect not named in the record. potentiation, % at 8.33 µM. 320,000 tested, 0.02% active. AID 540277, 2011; active means potentiation above 80%; inconclusive means 30% to 80%; inactive means below 30%; further: 0% is about no effect
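Fluo-8 calcium influx in TRPV1-expressing cells, kinetic read (ex 480/em 520 nm). Compound added and read 3 min for agonist activity, followed by capsaicin at EC20 final and 2 min further read for enhancement.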
Sfp PPTase inh: qHTS Assay for Inhibitors of Bacillus subtilis Sfp phosphopantetheinyl transferase (PPTase); 4'-phosphopantetheinyl transferase ffp (Bacillus subtilis), Q9F4F7; AID 1490, 2009; Biochemical Sfp PPTase activity, qHTS; 310,000 tested, 3.5% active; Potency, µM, inactives show max response, negative = inhibition, usual class: inhibitors; active means well fitted inhibition curve with a large enough effect; inconclusive means small, poorly fitted or top-dose-only effect, or another doubt; inactive means no such curve, though single readings can be large or run the other way;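 further: the enzyme is Sfp with the accession as filed and its product quenches rhodamine fluorescence; potency means the concentration at half of the fitted maximal effect; 0% = enzyme reaction without inhibitor and -100% = no enzyme wells; top concentration of the series not given in the record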
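After 15 min at room temperature with compound, 15 nM Sfp received 5 uM rhodamine-CoA plus 12.5 uM BHQ-2-ybbR (50 mM Hepes pH 7.6, 10 mM MgCl2). Rate came from the fluorescence difference over 30 min, ex 525/em 598 nm.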
PINK1 modulator: A Quantitative High throughput Screen to Identify Chemical Modulators of PINK1 Expression; PINK1 immunofluorescence, high-content cytometry, 24 h; Potency, µM (highest dose often 76.6 µM), without a hit: at the top dose activation (PINK1 increase), usual class: activators; 410,000 tested, 0.2% active; active = well fitted activation curve with a large enough effect; inconclusive = small, poorly fitted or top-dose-only effect; inactive = flat fitted curve, though single readings scatter; cell line not stated here;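 further: potency means the concentration at half of the fitted maximal effect; % of control where 0% means no effect; nearly all actives have a fitted effect of over 65% in size; a mitochondrial uncoupler was the plate control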
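Compound titrations (5 concentrations, 24 h) on a stable cell line; DMSO and CCCP controls. Endpoint: fixed-cell PINK1 immunofluorescence with mitochondrial, cell and nuclear markers, scanned by microplate cytometer.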
Six1-Eya2 blk: qHTS Assay for Inhibitors of the Six1/Eya2 Interaction; AlphaScreen GST-Six1/His-Eya2 binding, biochemical; active compounds read low; control for the full effect not named in the record; AID 651725, 2012; Homeobox protein SIX1 (Homo sapiens) + Protein phosphatase EYA2 (Homo sapiens), …; 360,000 tested, 0.56% active; activity change, % (test concentration not listed); in the data active = activity change below about -65%; inconclusive = about -30% to -65%; inactive = above about -30%; further: on the % scale 0 is the no-effect control and ±100 the full control effect
Target sequence (O00167 whole entry, looked up): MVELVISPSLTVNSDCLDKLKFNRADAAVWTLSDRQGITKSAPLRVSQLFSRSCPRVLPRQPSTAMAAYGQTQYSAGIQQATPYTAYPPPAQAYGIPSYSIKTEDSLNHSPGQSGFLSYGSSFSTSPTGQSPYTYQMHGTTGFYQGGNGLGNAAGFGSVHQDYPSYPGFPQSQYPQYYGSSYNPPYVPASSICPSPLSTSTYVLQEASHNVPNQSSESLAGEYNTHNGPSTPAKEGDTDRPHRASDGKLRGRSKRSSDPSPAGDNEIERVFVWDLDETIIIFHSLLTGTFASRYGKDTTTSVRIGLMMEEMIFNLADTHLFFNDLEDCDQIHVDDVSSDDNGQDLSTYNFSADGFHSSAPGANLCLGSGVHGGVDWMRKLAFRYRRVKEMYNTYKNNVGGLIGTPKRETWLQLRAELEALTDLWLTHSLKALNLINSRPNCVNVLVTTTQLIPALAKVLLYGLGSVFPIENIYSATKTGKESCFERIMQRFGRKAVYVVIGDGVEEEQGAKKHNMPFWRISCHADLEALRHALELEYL
Target sequence (Q15475 whole entry, looked up): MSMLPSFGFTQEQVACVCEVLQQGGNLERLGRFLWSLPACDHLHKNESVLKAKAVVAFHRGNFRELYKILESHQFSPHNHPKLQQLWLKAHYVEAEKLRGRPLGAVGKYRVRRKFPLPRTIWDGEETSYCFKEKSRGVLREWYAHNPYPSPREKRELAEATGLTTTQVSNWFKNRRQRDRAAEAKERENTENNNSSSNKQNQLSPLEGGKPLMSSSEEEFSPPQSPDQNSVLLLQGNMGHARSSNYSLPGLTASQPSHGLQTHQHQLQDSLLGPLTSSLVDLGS
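GST-Six1 + His-Eya2 (5X stock: 250/500 nM); Tris pH 8.0, 300 mM NaCl, 0.05% BSA, 0.02% Tween 20; GSH donor/Ni acceptor beads; 1 h 37 °C dark; AlphaScreen readout.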
D2 potentiator: Beta-Arrestin HTS for Positive Allosteric Modulators of the Human D2 Dopamine Receptor: Potentiators; 360,000 tested, 0.23% active; potentiation, % (concentration not given with the values); DiscoveRx D2 beta-arrestin cells, luminescence, 90 min; 100% = 57 uM dopamine signal; active = potentiation of 50% or more; inconclusive = 30% to 50%; inactive = 30% or less;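 further: compound concentration not given in the record; tested on top of an EC20 dose of dopamine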
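PathHunter beta-arrestin assay in DiscoveRx D2 cells. Compounds were added with an EC20 of dopamine (50 nM final) for 90 min at 37 deg C. Luminescence was read 1 h after detection reagent, with 57 uM dopamine as the EC100 control.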
D2 ag: Beta-Arrestin HTS for Positive Allosteric Modulators of the Human D2 Dopamine Receptor: Agonists. D(2) dopamine receptor (Homo sapiens), P14416. DiscoveRx PathHunter D2 beta-arrestin, luminescence, 90 min; 100% = 57 uM dopamine signal. activation, % (concentration not given with the values). 360,000 tested, 0.084% active. AID 624465, 2012; in the data active = activation above about 40%; inconclusive = about 15% to 40%; inactive = below about 15%; further: compound concentration not given in the record; the text of the record calls up to 30% inactive
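Agonist mode: compounds alone added to overnight-plated D2 PathHunter cells for 90 min at 37 C, with 57 uM final dopamine (EC100) defining full response. Beta-arrestin recruitment detected by chemiluminescent reagent, read after 1 h at ambient temperature.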
CtBP-E1A blk: qHTS Assay for Inhibitors of the CtBP/E1A Interaction | CtBP / adenovirus E1A interaction (AlphaScreen) | AlphaScreen GST-E1A/His-CtBP binding, 1536-well; active compounds read low; control for the full effect not named in the record | activity change, % (test concentration not listed) | 340,000 tested, 0.49% active | AID 651724, 2012; in the data active means activity change below about -65%; inconclusive means about -30% to -65%; inactive means above about -30%; further: on the % scale 0 is the no-effect control and ±100 the full control effect
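Homogeneous bead-based format: GST-tagged E1A captured on glutathione donor beads, His-tagged CtBP on nickel acceptor beads; compounds precede bead addition by 2 h at 37 °C.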
An asterisk follows results filed as active; ? = inconclusive; . = no result given; & = joins results of further samples; [ ] = another dose, or the depositor's remark. A portion of the library. The share of hits here may be higher or lower than overall.

SMILES	TRPV1 PAM	Sfp PPTase inh	PINK1 modulator	Six1-Eya2 blk	D2 potentiator	D2 ag	CtBP-E1A blk
COc1cccc(C(=O)C2CN(C)CC2c2ccc(Cl)cc2)c1 (configuration not stated)	1	21%	8.3%	-10	-17	-5.9	-2
Cc1ccc(N2C(=O)NC(=O)/C(=C/C=C/c3ccco3)C2=O)cc1	22	50µM*	-3.1%	-3	-3	1.0	2
C=CCn1c(O)c(C(C)=Nc2ccc(C(=O)OCC)cc2)c(=O)[nH]c1=O	20	-29%	2.2%	-1	-10	-1.7	0
COc1ccc(/C=C/C(=O)NC(=S)N2C[C@H]3C[C@H](C2)c2cccc(=O)n2C3)cc1OC	-6	-18%	-0.2%	-6	4	8.0	-4
CCN(CC)CCCN=Cc1c(O)n(CCc2ccc(F)cc2)c(=O)[nH]c1=O	6	12%	1.8%	6	-14	-1.4	-3
CN1CCN(CC#CCOc2ccc(Cl)cc2)CC1	5	?	0.4%	7	-47	-2.5	.
COc1ccc(CN2CCN(c3ccccc3F)CC2)cc1O	3	-15%	1.7%	-1	-32	.	4
CCCC1(CCO)C(=O)NC(=S)NC1=O	.	.	-0.8%	4	-27	-1.5	-1
CN(C)CC1CSCCC1(O)c1ccccc1Cl (configuration not stated)	17	7%	-2.0%	6	-11	0.0	6
Cn1c(O)c(/C=N/N2CCOCC2)c(=O)n(-c2ccccc2)c1=S	16	-8%	1.0%	11	-9	-4.9	6
Cc1cc(C)n2nc(C)[n+](C)c2n1	3	-2%	2.4%	15	-11	-0.4	6
CN1CCC(N(C)Cc2cccnc2)CC1	2	89µM*	-2.7%	13	-4	-3.6	-12
Clc1ccc(N2CCNCC2)nn1	?	10%	3.0%	1	-8	1.6	7
O=c1[nH]c(=O)n(-c2ccccc2F)c(O)c1C=NCCC1=CCCCC1	5	11%	-0.2%	4	-1	-0.6	.
Clc1cccc(CNCCc2c[nH]c3ccccc23)c1	28	5%	7.0%	-18	-15	-3.8	-20
Cc1ccc(N2C(=O)NC(=O)C3(Cc4ccccc4N4CCN(c5ccccc5)CC43)C2=O)cc1 (configuration not stated)	-15	-12%	12%[38.3 µM]	-6	-6	13	-7
COc1cc(OC)c(OC)cc1CN1CCN(C(=O)COc2ccc3ccccc3c2)CC1	-1	-21%	-0.1%	-19	.	-5.6	-19
Cn1cc(C(=O)Cc2ccccc2)c2ccccc21	6	10%	0.3%	3	-9	0.4	16
O=C(Nc1ccc(F)cc1)c1c(O)c2c(n(Cc3ccccc3)c1=O)CCCC2	4	5%	-0.1%	6	-6	-4.7	0
Cc1cc(=O)oc2c(C)c(OCC(=O)N3CCN(Cc4ccccc4)CC3)ccc12	20	9%	1.5%	-3	4	-2.7	-6
CN1CCN(/N=C/c2c(O)n(CCC3=CCCCC3)c(=S)[nH]c2=O)CC1	10	-6%	2.3%	4	-3	-6.6	0
CCC1([N+](=O)[O-])COP(=O)(NCc2cccnc2)OC1 (configuration not stated)	.	.	-4.7%	7	-8	-1.4	7
COc1cc2c(cc1O)CC1c3c(cc(O)c(OC)c3-2)CCN1C (configuration not stated)	-2&-4	-17%&1%&-4%&5%	0.1%&-1.5%	?	-7	6.7	-29
O=C1OCc2cc(N=Nc3c(O)[nH]c(=O)[nH]c3=O)ccc21	.	19%	0.4%	-3	-5	-1.9	-8
O=C1NC(=S)NC(=O)C1=Cc1ccc(OCC(=O)N2CCCC2)cc1	5	20µM*	2.2%	0	-7	-1.5	-6
CC(C)N=C(NC(C)C)N1CC1	.	.	-0.3%	-8	-3	-1.4	4
CNCC(O)c1ccc(O)cc1 (configuration not stated)	12	-7%	1.0%	-5	2	4.0	2
COc1ccc(N2C(=O)/C(=C/c3ccc(N(C)C)o3)C(=O)NC2=S)cc1	-3	-22%	-2.4%	22	-5	-19	34
CCN1CC2([N+](=O)[O-])CC=C(Cl)C([N+](=O)[O-])(C1)C2 (configuration not stated)	4	30%	0.3%	2	-13	-1.7	-10
CSc1ccc(CNC(C)C(O)c2ccccc2)cc1 (configuration not stated)	-10	-13%	4.8%	0	-4	-1.5	-1
CCN1C[C@]2(COC)CC[C@H](O)[C@@]34C5C[C@H]6[C@H](O)C5[C@](O)(C[C@H]6OC)[C@@H]([C@H](OC)C23)[C@@H]14 (some centres not stated)	.	.	0.6%	-1	-10	-6.2	4
O=c1[nH]c(=S)n(C2CC2)c(O)c1C=NCCc1ccccc1	.	8%	9.2%	0	-1	1.7	-8
CCN1C[C@]2(OC(=O)c3ccccc3NC(C)=O)CCC(OC)C34C5C[C@H]6C(OC)[C@]5(O)[C@](O)(C[C@@H]6OC)C(C[C@@H]32)[C@H]14 (some centres not stated)	-2	5%	1.3%	10	-5	-3.9	-2
CN(c1ccccc1)P(=O)(N1CC1)N1CC1	.	.	-5.6%	6	-14	-0.6	2
N=C1SCC(=O)N1Cc1ccccc1	-3	14%	1.5%	-3	-7	-5.3	5
CCc1sc(C(=O)N2CCC3(CC2)OCCO3)cc1Br	9	5%	4.4%[38.3 µM]	2	-8	-5.1	2
CCCCOC1OCN(C2CCCCC2)CC1(C)C (configuration not stated)	.	.	-0.4%	19	-5	-0.7	2
CCc1ccc(OCC(=O)N2CCN(CC(=O)Nc3ccccc3Cl)CC2)cc1	-21	.	0.5%	0	2	0.5	-2
COC(=O)c1ccccc1-n1c(C)nc2ccccc2c1=O	3	-5%	3.9%	0	-20	-1.1	4
Cc1nn(Cc2ccccc2)c(Cl)c1C(=O)OCC(=O)N1CCCC1	5	3%	-0.7%	1	-8	-3.1	.
CC(=O)OCC[N+](C)(C)C	-34&24&-27	20%&2%&36%&1%&-1%	-0.4%&0.6%&1.5%	?	1&-4&7	-4.1&-5.3&-4.9	2&-10&-22
CCc1c(C)nc(N)nc1N1N=C1SC(C(C)=O)C(C)=O	10	?	-0.7%	7	-5	4.0	0
O=C(N/N=C/c1c(O)n(CCC2=CCCCC2)c(=O)[nH]c1=O)c1ccccc1	-11	9%	0.8%	?	-28	-9.8	?
CC(C)c1ccc(-n2c(O)c(/C=N/N3CCOCC3)c(=O)[nH]c2=S)cc1	-5	6%	0.5%	5	-10	-1.0	-3
Nc1ccc([As](=O)(O)O)cc1	6	-2%&-10%&5%	2.0%	4	-3	-0.6	5
O=c1[nH]c2ccccc2n1C1CCN(C(c2nnnn2Cc2ccccc2)C2CC2)CC1 (configuration not stated)	.	.	-1.3%	-7	?	8.5	-2
COc1ccc(N2C(=O)CC(=O)NC2=O)cc1	0	?	4.0%[38.3 µM]	-3	-5	-1.8	5
CCN(CC)CC(=O)Nc1ccc(Cl)cc1C(=O)c1ccccc1	.	.	7.5%	-4	-4	-3.0	-9
C=C(C=O)CC1CC(O)[C@]2(C)OC3C[C@@H]4OC5C[C@]6(C)O[C@]7(C)CCC8OC9C[C@]%10(C)OC(/C(C)=C\CO)C(O)CC%10OC9CC(C)C8OC7CC6O[C@]5(C)C/C=C\C4OC3CC2O1 (some centres not stated)	-1	.	0.8%	0	-7	-1.5	1
CC(=O)C1CCC2C3CC(O)C4CC(O)CCC4(C)C3CCC12C (configuration not stated)	.	.	0.6%	-4	-30	-5.2	1

Record cards, from the list above. Order of screens: TRPV1 PAM | Sfp PPTase inh | PINK1 modulator | Six1-Eya2 blk | D2 potentiator | D2 ag | CtBP-E1A blk
CC(C)c1ccc(-n2c(O)c(/C=N/N3CCOCC3)c(=O)[nH]c2=S)cc1 is listed with -5 | 6% | 0.5% | 5 | -10 | -1.0 | -3
CCN(CC)CC(=O)Nc1ccc(Cl)cc1C(=O)c1ccccc1 is listed with . | . | 7.5% | -4 | -4 | -3.0 | -9

(more compounds)
SMILES	TRPV1 PAM	Sfp PPTase inh	PINK1 modulator	Six1-Eya2 blk	D2 potentiator	D2 ag	CtBP-E1A blk
COC(=O)C1=C(c2ccc(-c3ccccc3)c(F)c2)C[C@@H]2CC[C@H]1N2C(=O)NCc1cc(C)oc1C(F)(F)F	2	.	2.0%	0	-21	4.1	-6
CC/C(=N\N1CCCCCC1)c1c(O)n(-c2ccc(C)cc2)c(=O)[nH]c1=O	-2	-6%	-0.7%	1	5	-0.5	7
CC(=O)c1ccc(NC2=NCCCS2)cc1	1	26%	1.2%	6	-4	-2.4	2
CCN(CC)C(=O)c1ccc(NC(=O)CSc2nnnn2-c2cc(OC)ccc2OC)cc1	0	-5%	0.7%[38.3 µM]	-12	0	2.6	-24
Cc1ccccc1-n1c(O)c(/C=N/NC(=O)c2ccccc2O)c(=O)[nH]c1=S	-39	6%	0.4%	-92*	-9	-5.2	-101*
CCCCCCCCC(=O)NCc1ccc(O)c(OC)c1	4	13%&9%	0.7%&-0.4%	-8	-2	-3.0	-7
CCCCN=Cc1c(O)n(-c2c(C)cc(C)cc2C)c(=O)[nH]c1=O	?	18%	-0.2%	3	-1	-1.9	1
CN(C)C(=O)Oc1ccc2ccccc2c1Cl	-2	?	6.8%	5	14	1.0	11
CCOC(=O)C1=C(N)OC2=C(C(=O)CCC2)C12C(=O)N1c3c(ccc(C)c32)C(C)=CC1(C)C (configuration not stated)	3	-5%	0.2%	-2	9	-2.2	-2
CCN(C=C1CC2C3CC=C4CC(O)CCC4(C)C3CCC2(C)C1=O)CC (configuration not stated)	.	.	0.5%	6	-10	-1.5	3
O=C(c1cc2cc(Br)ccc2[nH]1)N1CCC2(CC1)OCCO2	-4	14%	1.6%	-2	-5	-4.6	.
O=c1c2ccccc2[nH]c(=S)n1-c1ccc2c(c1)OCCO2	-7	15%	1.6%	-2	0	-3.3	.
CCOc1cccc(OCC)c2c(C)[n+](CC3CCCO3)c(C)c1-2 (configuration not stated)	15	56µM*	-1.1%	-28	-5	-1.7	-6
CCCCn1c(O)c(C(C)=NCCc2c[nH]c3ccccc23)c(=O)[nH]c1=O	14	-16%	1.5%	-7	-2	0.5	0
CC1CN(c2ccc([N+](=O)[O-])c(N3CCCCC3)c2)CCN1 (configuration not stated)	-7	-5%	1.9%	-14	-11	-2.6	-12

Compound activity: PubChem, National Center for Advancing Translational Sciences (NCATS)
